DUX4 txn inh = inhibitors of DUX4-driven ZSCAN4 reporter expression, primary screen, 293T cells, Gaussia and Italica luciferase | 37,000 tested, 0.8% active | activity change, negative = inhibition, % (test concentration not listed) | 293T-iDUX4 ZSCAN4-Gaussia luciferase reporter, 24 h; hits give low values;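 active = -10% or lower and over 25 points stronger than a control reporter; inconclusive = -10% or lower with a smaller gap; inactive = above -10%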;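 also: 0% = median of neutral control wells and -100% = median of positive control wells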
DUX4 txn inh difference = also measured in DUX4 txn inh; calls as there; Gaussia minus Italica difference, %; measured here: selective DUX4 reporter inhibition;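 worked out from the two reporters; negative = selective loss of the DUX4 reporter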
DUX4 txn inh control = also measured in DUX4 txn inh; calls as there; activity change, negative = inhibition, %; measured here: Italica tet-on control reporter;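 0 = neutral control and -100 = positive control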
Numbers without * were called inactive; u = inconclusive; x = no result given. These rows are one share of the data. The share of hits here may be higher or lower than overall.

SMILES	DUX4 txn inh	DUX4 txn inh difference	DUX4 txn inh control
O=C(c1ccc2c(c1)OCO2)N1C[C@@H]2[C@H](c3ccccc31)[C@@H](CO)N2Cc1ccccc1Cl	-0.4	-4.5	4.1
O=C(C[C@@H]1CC[C@@H]2[C@H](COC[C@@H](O)CN2C(=O)c2ccncc2)O1)NC1CCC1	3.4	5.4	-2.0
Cc1ccc(NC(=O)Nc2ccc3c(c2)C(=O)N(C)[C@@H]2CC[C@@H](CC(=O)NCC(F)(F)F)O[C@H]2CO3)cc1	2.9	0.4	2.5
COc1ccc(S(=O)(=O)N(C)C[C@H]2OCc3cn(nn3)CCCC(=O)N([C@H](C)CO)C[C@@H]2C)cc1	-0.7	3.6	-4.3
O=C(Nc1cc(F)ccc1F)N1CC(=O)N2[C@H](C1)[C@@H](c1ccc(C#CC3CCCCC3)cc1)[C@@H]2CO	1.2	1.9	-0.6
COc1ccccc1S(=O)(=O)N1CC[C@@H]2[C@@H](CO)N(C)c3ccc(-c4ccc(F)cc4)cc3[C@@H]21	u	x	x
O=C(Nc1ccccc1)N1CC(=O)N2[C@H](C1)[C@H](c1ccc(C#CC3CCCCC3)cc1)[C@@H]2CO	-2.2	-1.3	-0.9
C[C@H](CO)N1C[C@H](C)[C@@H](CN(C)Cc2cncnc2)Oc2cc(-c3ccccc3F)ccc2S1(=O)=O	-1.3	0.9	-2.2
CN(C)C(=O)C[C@H]1C=C[C@@H](NC(=O)c2ccc(F)cc2)[C@H](CO)O1	6.8	4.2	2.5
COCC(=O)N1[C@@H]2c3ccc(-c4ccc(F)cc4)c(=O)n3C[C@@H]2[C@@H](CO)[C@@H]1C(=O)Nc1ccccc1	5.5	5.4	0.1
O=C(C1CCC1)N1C[C@H]2[C@@H](c3ccccc31)[C@H](CO)N2S(=O)(=O)c1ccccc1	1.0	-6.1	7.2
CCCC#Cc1ccc([C@@H]2[C@H]3CN(C(=O)Nc4ccccc4F)CC(=O)N3[C@H]2CO)cc1	9.3	16.5	-7.2
CO[C@@H]1CN(C)C(=O)c2cc(NC(=O)c3cccc(F)c3)ccc2OC[C@@H](C)N(C)C[C@@H]1C	4.1	7.5	-3.4
O=C(NC1CCCCC1)N1CC2(C1)[C@H](c1ccccc1)[C@H](CO)N2S(=O)(=O)Cc1ccccc1	-2.1	0.4	-2.5
COCC(=O)N1CC(=O)N2[C@H](C1)[C@@H](c1ccc(C#CC3CC3)cc1)[C@@H]2CO	-0.5	0.1	-0.6
COc1ccc(S(=O)(=O)Nc2ccc3c(c2)C(=O)N([C@@H](C)CO)C[C@@H](C)[C@@H](CN(C)C(=O)Nc2c(C)noc2C)OCCCC[C@@H](C)O3)cc1	4.4	1.1	3.4
CC(C)OC(=O)N(C)C[C@@H]1OCc2cnnn2CCCC(=O)N([C@H](C)CO)C[C@@H]1C	0.6	-3.7	4.3
CCC(=O)N1[C@H](CO)[C@H](c2ccccc2)[C@@H]1CN(CC)C(=O)c1ccc(F)cc1	-0.3	-4.4	4.1
COc1ccccc1CNC(=O)C[C@H]1C[C@@H]2c3cc(NC(=O)C4CCC4)ccc3O[C@@H]2[C@@H](CO)O1	-7.9	-2.7	-5.2
COC(=O)C[C@H]1CC[C@@H]2[C@H](COC[C@H](O)CN2S(=O)(=O)c2ccc(F)cc2)O1	0.0	-9.7	9.7
COCC#Cc1ccc([C@@H]2[C@H](CO)N3CCCCN(Cc4cccnc4)C[C@@H]23)cc1	14.7	10.0	4.8
COc1ccc2c3c([nH]c2c1)[C@@H](CO)N(S(C)(=O)=O)CC31CN(CC2CCOCC2)C1	7.6	-10.6	18.2
Cc1noc(C)c1S(=O)(=O)Nc1ccc2c(c1)C(=O)N([C@H](C)CO)C[C@@H](C)[C@@H](CN(C)C(=O)CCC(F)(F)F)OCCCC[C@@H](C)O2	-1.3	0.3	-1.6
COc1ccccc1CNC(=O)C[C@H]1CC[C@H]2[C@@H](COc3ccc(NS(=O)(=O)c4ccc(C)cc4)cc3C(=O)N2C)O1	1.3	2.7	-1.4
CO[C@@H]1CN(C)C(=O)c2cc(NS(C)(=O)=O)ccc2OC[C@@H](C)N(Cc2cncnc2)C[C@@H]1C	-0.8	-10.9	10.1
CCC(=O)N1[C@@H](CO)[C@@H](c2ccc(-c3cccc(F)c3)cc2)[C@@H]1CN(C)C(C)=O	-1.2	-1.1	-0.1
Cc1ccccc1S(=O)(=O)N1CC(=O)N2[C@H](CO)[C@@H](c3ccc(C#CCC(C)C)cc3)[C@@H]2C1	-4.2	-6.6	2.3
O=C(C[C@@H]1CC[C@H]2[C@@H](COC[C@H](O)CN2C(=O)Nc2ccc(Cl)cc2)O1)NCCc1ccncc1	14.7	4.1	10.6
CC(C)[C@H]1C(=O)N[C@H](c2cccc(Cl)c2)CC=CC[C@@H](C)Oc2ccccc2C(=O)N1C (mixture of isomers)	-3.7	3.6	-7.3
COCC(=O)Nc1ccc2c(c1)[C@H]1C[C@@H](CC(=O)N[C@@H](C)c3ccccc3)O[C@@H](CO)[C@H]1O2	0.1	-4.2	4.3
C[C@@H](NC(=O)C[C@@H]1C[C@@H]2c3cc(NC(=O)Nc4ccccc4F)ccc3O[C@@H]2[C@@H](CO)O1)c1ccccc1	u	x	x
COc1ccccc1NC(=O)N[C@H]1C=C[C@@H](CC(=O)NCc2ccc(Cl)c(Cl)c2)O[C@H]1CO	-5.1	0.1	-5.2
C[C@@H]1CCCCO[C@H](CN(C)C(=O)CCCN(C)C)[C@H](C)CN([C@H](C)CO)C(=O)c2cc(NC(=O)Nc3cccc4ccccc34)ccc2O1	-6.1	9.6	-15.7
CN1C(=O)c2cc(NC(=O)c3cccc(F)c3)ccc2OC[C@H]2O[C@H](CC(=O)NCC3CCCCC3)CC[C@H]21	u	-0.2	0.1
C[C@@H](NC(=O)[C@@H]1N[C@@H]2c3ccc(-c4cccnc4)c(=O)n3C[C@@H]2[C@H]1CO)c1ccccc1	0.2	1.1	-0.9
CS(=O)(=O)N1CC(=O)N2[C@@H](CO)[C@H](c3ccc(C#Cc4ccc(F)cc4)cc3)[C@@H]2C1	1.5	-0.3	1.8
COCC(=O)Nc1ccc2c(c1)C(=O)N(C)C[C@H](OC)[C@@H](C)CN(Cc1ccccn1)[C@H](C)CO2	-0.7	-4.4	3.7
CC(C)C(=O)Nc1ccc2c(c1)C(=O)N(C)[C@H]1CC[C@@H](CC(=O)NCc3ccc(F)cc3)O[C@@H]1CO2	1.7	0.5	1.2
CNC[C@@H]1Oc2cc(-c3ccccc3OC)ccc2S(=O)(=O)N([C@H](C)CO)C[C@H]1C	4.3	-1.7	5.9
CNC[C@@H]1OCc2ccccc2-c2c(n(C)c3ccccc23)C(=O)N([C@H](C)CO)C[C@@H]1C	-3.4	-5.1	1.7
O=C(C[C@H]1C[C@H]2c3cc(NC(=O)Nc4ccc(C(F)(F)F)cc4)ccc3O[C@H]2[C@H](CO)O1)NCc1ccc2c(c1)OCO2	-5.6	-12.7	7.1
O=C(C[C@H]1C[C@@H]2c3cc(NC(=O)NC4CCCCC4)ccc3O[C@@H]2[C@H](CO)O1)NCCc1ccccc1	-5.1	-5.4	0.3
C[C@@H]1CN([C@H](C)CO)C(=O)c2c(c3ccccc3n2C)-c2ccccc2CO[C@H]1CN(C)Cc1ccc(-c2ccccc2)cc1	u	x	x
O=C(C[C@@H]1CC[C@@H](NC(=O)c2cccnc2)[C@H](CO)O1)NCc1ccc(Cl)c(Cl)c1	0.7	4.0	-3.3
COC(=O)C[C@@H]1C[C@@H]2c3cc(NS(=O)(=O)c4cccc(OC)c4)ccc3O[C@@H]2[C@@H](CO)O1	-2.4	-8.9	6.5
COc1ccc2c3c([nH]c2c1)[C@H](CO)N(C(=O)CC1CC1)CC31CN(Cc2ccncc2)C1	4.5	6.2	-1.7
Cc1ccccc1-c1ccc(C2[C@@H]3CN(Cc4cncnc4)C[C@H]2N3)cc1 (stereo not given in full)	u	-13.3	7.8
COc1ccccc1-c1ccc2n(c1=O)C[C@H]1[C@H](CO)[C@@H](C(=O)Nc3nccs3)N(CC3CC3)[C@@H]21	-4.9	2.0	-6.8
Cc1ccc(S(=O)(=O)N(C)C[C@H]2Oc3ccc(NC(=O)Nc4ccc(C(F)(F)F)cc4)cc3CC(=O)N([C@H](C)CO)C[C@@H]2C)cc1	1.0	-6.1	7.2
CN1C[C@H]2[C@@H](c3ccccc31)[C@@H](CO)N2C(=O)c1cccnc1	-0.2	-4.1	3.8
O=C(NC1CCCC1)[C@H]1[C@H](CO)[C@H]2Cn3c(ccc(-c4cccnc4)c3=O)[C@H]2N1CCc1ccccc1	5.7	6.7	-1.0
Cc1ccccc1-c1ccccc1[C@@H]1[C@H](C#N)N(C(=O)c2ccc(F)cc2)[C@H]1CO	-5.8	0.9	-6.7
C[C@H]1CN([C@@H](C)CO)S(=O)(=O)c2ccc(Br)cc2O[C@H]1CN(C)C(=O)C1CC1	1.8	-2.0	3.7
CCCNC(=O)N1[C@H](CO)[C@H](c2ccc(C3=CCCC3)cc2)[C@@H]1CN(C)C(C)=O	6.6	1.3	5.3
C/C=C/c1ccc([C@H]2[C@@H](CO)N(S(C)(=O)=O)[C@@H]2CN(CC)C(=O)CC)cc1	-0.3	-0.3	0.0
O=C(NC1CCCC1)N1CCCCN2[C@H](C1)[C@@H](c1ccc(-c3cncnc3)cc1)[C@@H]2CO	1.5	2.2	-0.7
CN1CCN(C(=O)C[C@@H]2C=C[C@H](NC(=O)Cc3ccccn3)[C@H](CO)O2)CC1	3.5	2.0	1.5
COc1ccc(NC(=O)N[C@H]2CC[C@H](CCn3cc(C4(O)CCCC4)nn3)O[C@@H]2CO)cc1	4.6	1.9	2.7
C/C=C/c1cnc2c(c1)C(=O)N([C@H](C)CO)C[C@H](C)[C@@H](CN(C)C(=O)Nc1c(C)noc1C)O2	1.7	-3.5	5.3
CO[C@H]1CN(C)C(=O)c2ccc(NS(=O)(=O)CC(F)(F)F)cc2OC[C@H](C)N(CC2CCCCC2)C[C@@H]1C	3.7	-4.2	7.9

(continued)
SMILES	DUX4 txn inh	DUX4 txn inh difference	DUX4 txn inh control
O=C(C[C@H]1C=C[C@@H](NC(=O)CC2CC2)[C@H](CO)O1)NCC(F)(F)F	-3.4	-4.0	0.7
CN(C)C(=O)c1ccc(-c2ccc([C@H]3[C@H](CO)N4CCCCN(CCC(F)(F)F)C[C@@H]34)cc2)cc1	6.2	12.1	-6.0
CNC(=O)C[C@H]1CC[C@H]2[C@@H](COc3ccc(NC(=O)c4ccccc4F)cc3C(=O)N2C)O1	2.3	1.0	1.3
COc1ccc(S(=O)(=O)N(C)C[C@H]2Oc3ccc(NC(=O)Nc4ccc(C(F)(F)F)cc4)cc3C(=O)N([C@H](C)CO)C[C@@H]2C)cc1	-3.3	-2.3	-1.0
CCNC(=O)C[C@H]1CC[C@@H]2[C@H](COC[C@H](O)CN2C(=O)Nc2cccc(OC)c2)O1	2.5	-1.0	3.5
C[C@@H]1CN([C@@H](C)CO)S(=O)(=O)c2ccc(C#C[C@@H](C)O)cc2O[C@@H]1CN(C)C(=O)Cc1ccccn1	-1.2	-1.8	0.6
CNC[C@H]1OCCCC[C@@H](C)Oc2ccc(NC(=O)Nc3c(C)noc3C)cc2C(=O)N([C@@H](C)CO)C[C@@H]1C	-1.9	-4.5	2.6
C[C@H]1CN([C@@H](C)CO)C(=O)Cc2cc(NC(=O)Nc3ccc(F)cc3)ccc2O[C@@H]1CN(C)Cc1ccc(-c2ccccc2)cc1	1.5	1.4	0.1
CO[C@H]1CN(C)C(=O)c2ccc(NC(=O)c3cccc(F)c3)cc2OC[C@H](C)NC[C@@H]1C	-1.7	-5.1	3.4
C[C@@H]1CN([C@@H](C)CO)C(=O)CCCn2cc(nn2)CO[C@H]1CN(C)S(=O)(=O)c1ccc(F)cc1	-3.5	-1.3	-2.3
COc1ccc(NC(=O)N2C[C@H](O)COC[C@@H]3O[C@@H](CC(=O)NCc4ccncn4)CC[C@H]32)cc1	-1.0	4.3	-5.3
Cc1cccc(S(=O)(=O)N2CCCCN3[C@H](C2)[C@H](c2ccc(C#C[C@@H](C)O)cc2)[C@@H]3CO)c1	4.3	1.5	2.9
C/C=C/c1ccc([C@H]2[C@@H](CO)N(C(C)=O)[C@@H]2CN(CCC)C(=O)C2CCC2)cc1	1.9	-1.1	3.0
CN1C(=O)c2cc(NC(=O)c3cscn3)ccc2OC[C@@H]2O[C@@H](CC(=O)NCC3CC3)CC[C@@H]21	1.8	-5.1	6.9
O=C(C1CCOCC1)N1CC(=O)N2[C@H](CO)[C@@H](c3ccc(Br)cc3)[C@H]2C1	18.7	8.5	10.2
CN(C)CCCNC(=O)[C@H]1[C@H](CO)[C@H]2Cn3c(cccc3=O)[C@H]2N1C(=O)Nc1ccccc1	-1.6	-6.3	4.6
C/C=C/c1ccc([C@@H]2[C@@H](CO)N(C(=O)c3cnccn3)C23CN(C(=O)C2CC2)C3)cc1	9.4	3.7	5.7

Full records from above. Values in the order: DUX4 txn inh, DUX4 txn inh difference, DUX4 txn inh control
Results for `C[C@@H]1CN([C@@H](C)CO)C(=O)CCCn2cc(nn2)CO[C@H]1CN(C)S(=O)(=O)c1ccc(F)cc1` → -3.5, -1.3, -2.3
Results for `CN1C(=O)c2cc(NC(=O)c3cscn3)ccc2OC[C@@H]2O[C@@H](CC(=O)NCC3CC3)CC[C@@H]21` → 1.8, -5.1, 6.9
Results for `C[C@@H]1CN([C@@H](C)CO)S(=O)(=O)c2ccc(C#C[C@@H](C)O)cc2O[C@@H]1CN(C)C(=O)Cc1ccccn1` → -1.2, -1.8, 0.6
Results for `C[C@H]1CN([C@@H](C)CO)C(=O)Cc2cc(NC(=O)Nc3ccc(F)cc3)ccc2O[C@@H]1CN(C)Cc1ccc(-c2ccccc2)cc1` → 1.5, 1.4, 0.1
Results for `CNC(=O)C[C@H]1CC[C@H]2[C@@H](COc3ccc(NC(=O)c4ccccc4F)cc3C(=O)N2C)O1` → 2.3, 1.0, 1.3

Source: PubChem BioAssay
